# Compound activity (PubChem)
# H5N1 antiviral = MDCK cell protection from H5N1 avian flu; cytopathic effect, luminescence, 72 h; hits give high values; no value below 0 was filed and about half of the inactive calls have no number; reference of the scale not given here; inhibition, % at 50 µM; 0.07% of 96,000 active; AID 740; in the data active = inhibition above about 25%
# The depositor's hits bear a star; i = inactive. This is a subset; count on the stated rates, not on these rows.
canonical_smiles	H5N1 antiviral
N#CC1=C(N)N(c2ccccc2)C2=C(C(=O)CCC2)C1c1cccs1 (stereo unspecified)	2.9
Cc1ncc(CO)c2cc(S(=O)(=O)c3ccc(F)cc3)c(=O)oc12	i
Cc1ncc([N+](=O)[O-])n1CCOC(=O)c1ccc(Cl)cc1Cl	0.8
CC(C)Cc1cc(C(=O)Nc2ccc3c(c2)OCO3)no1	i
COc1ccccc1N1CCN(S(=O)(=O)c2ccccc2)CC1	2.3
COc1cc2c(cc1OC)C(C)N(C(=O)CCN1C(=O)C3C4C=CC(C4)C3C1=O)CC2 (stereo unspecified)	0.1
CCN(CC)c1c([N+](=O)[O-])ncn1C	0.8
COc1ccccc1C1NC(=O)CS1 (stereo unspecified)	1.5
CCOC(=O)N1CCC(N2CC34C=CC(O3)C(C(=O)Nc3ccc(F)cc3)C4C2=O)CC1 (stereo unspecified)	0.5
CC12CCC(C(=O)NCCCN3CCOCC3)(OC1=O)C2(C)C (stereo unspecified)	0.5
N#C/C(=C/c1ccc(OCc2ccccc2)cc1)C(=O)NC1CCCCC1	i
Clc1cc(Br)ccc1OCCOCCOc1cccc2cccnc12	i
COCCNc1nc(-n2nc(C)cc2C)nc2sc3c(c12)CCCC3	8.4
Nc1nncn1C(=O)CCCOc1ccc(Cl)cc1Cl	1.1
CN(C)CCOc1ccccc1-c1ccccc1	1.1
CCN(CC)S(=O)(=O)c1ccc(NS(=O)(=O)c2ccc(F)cc2)cc1	0.5
O=C(CSc1nnc(Cn2nnc3ccccc32)o1)N(Cc1ccc(F)cc1)c1ccccc1	5.1
Cc1nn(-c2ccc(Cl)c(Cl)c2)c(=O)c2ccccc12	i
O=C(CCN1C(=O)C2C3C=CC(C3)C2C1=O)Nc1ccccc1F (stereo unspecified)	i
COc1cccc(-n2nnc3c(=O)n(Cc4ccccc4F)cnc32)c1	0.7
CCCn1c(/C=C/c2ccccc2)nc2ccccc21	i
CC(=O)N(Cc1cc(=O)[nH]c2ccccc12)c1cccc(C)c1	3.0
Cc1cc(C(=O)N2CCN(C(c3ccccc3)c3ccccc3)CC2)no1	1.6
CC(=O)c1c(C)[nH]c(C(=O)NCc2ccccc2Cl)c1C	i
CCC(C)NC(=O)CS(=O)Cc1nc(-c2cccc(OC)c2)oc1C (stereo unspecified)	i
CC(C(=O)O)n1nc2ccccc2n1 (stereo unspecified)	i
CN(C(=O)C1CCN(S(=O)(=O)c2cccs2)CC1)C1CCCCC1	2.2
CCn1c(CSc2nc3ccccc3[nH]2)nc2cc(C(=O)O)ccc21	2.9
CN1CCN(C(=O)c2cc3sccc3n2CC(=O)c2ccccc2)CC1	i
Nc1nc(SCC(=O)N2N=C3/C(=C/c4ccco4)CCCC3C2c2ccco2)n[nH]1 (stereo unspecified)	2.1
CC(C)Cc1[nH]c(=O)c(C#N)c2c1COC(C)(C)C2	i
CCN(C(C)=O)c1nnc(CSc2nc3ccccc3s2)s1	0.4
Fc1ccc(C(c2nnnn2Cc2cccs2)N2CCN(C3CCCC3)CC2)cc1 (stereo unspecified)	4.5
O=C(CN(Cc1ccco1)S(=O)(=O)c1ccccc1)N/N=C/c1cccc(O)c1	0.2
COc1ccc(CCNC(=O)c2cc(-c3ccccc3O)n[nH]2)cc1OC	1.6
CC(C)(C)c1ccc(NC(=O)COc2ccc(-n3ccnc3)cc2)cc1	4.9
O=C(Nc1ccc(OC(F)F)cc1)Nc1cccc(C(F)(F)F)c1	i
CCOC(=O)Cc1[nH]nc2c1C(c1cccc(OC)c1OC)C(C#N)=C(N)O2 (stereo unspecified)	i
Cc1ccc(S(=O)(=O)N(C)CCCC(=O)N2CCOCC2)cc1	0.4
Cc1cc(C)n(Cc2ccc(NC(=O)c3ccc(COc4ccccc4Br)cc3)cc2)n1	0.9
OC1CNCc2cc3c(cc21)OCCO3 (stereo unspecified)	0.7
O=C(CSc1nnc(-c2ccncc2)n1CC1CCCO1)Nc1cccc(O)c1 (stereo unspecified)	i
COC(=O)c1cc(=O)n2c(-c3ccccc3)csc2n1	2.3
CCC(C)(C(=O)NC1CCCCC1)N(Cc1cccs1)C(=O)Cc1cccs1 (stereo unspecified)	i
COc1ccc(OC)c(C(c2nnnn2CCc2ccccc2)N2CCC(C(N)=O)CC2)c1 (stereo unspecified)	1.0
CCS(=O)(=O)N1CCCC(C(=O)NC2CCCCC2C)C1 (stereo unspecified)	0.8
C(=N\N1CCN(Cc2cccc3ccccc23)CC1)/c1ccco1	i
Clc1ccc(Nc2nc(-c3cccnc3)cs2)cc1	0.8
O=C(NCC1CCCO1)C(C(=O)c1ccccc1)n1ccccc1=O (stereo unspecified)	0.1
COc1ccccc1CNC(=O)C1CCN(S(=O)(=O)N2CC(C)CC(C)C2)CC1 (stereo unspecified)	0.1
Cc1cc(C)c(S(=O)(=O)NCCn2c(C)cc3ccccc32)c(C)c1	2.0
COc1ccc(OC)c(NC2c3ccccc3C(=O)N2c2cccnc2)c1 (stereo unspecified)	2.1
O=C(Cn1c(=O)oc2cc(S(=O)(=O)N3CCCC3)ccc21)N1CCc2ccccc2C1	2.6
COc1cc(CN2CCC(C(=O)NC3CCCC3)CC2)ccc1O	i
C#CCOC(=O)Nc1ccc(=O)n(Cc2c(Cl)cccc2Cl)c1	0.4
CCN(CC)C(=O)CSc1nnc(-c2ccncc2)n1N	0.2
CC1CN(C)C(c2ccccc2)C(C)C12NC(=O)NC2=O (stereo unspecified)	i
COc1cc(CNC2CCC(C)C2)cc(OC)c1 (stereo unspecified)	i
Cc1ccc(S(=O)(=O)/N=C(\N)Nc2nc(C)c3cc(C)c(C)cc3n2)cc1	1.7
Cc1ccc(NC(CC(=O)c2ccccc2)c2ccc(F)cc2)cc1 (stereo unspecified)	i

# The list goes on:
canonical_smiles	H5N1 antiviral
CC1(C)Cc2c(c(N3CCOCC3)nc3snc(Br)c23)CO1	0.6
O=C(CCS(=O)(=O)c1ccccc1)NC12CC3CC(CC(C3)C1)C2	0.1
Cc1nnc(SCC(=O)NC2CCCC2)s1	0.5
O=C(Cc1cccs1)Nc1ccccn1	7.5
O=C(O)C1C2CCC(C2)C1C(=O)Nc1nc2ccccc2s1 (stereo unspecified)	0.9
CC(C)c1c(O)nc(SCCC(=O)O)[nH]c1=O	i
COc1cc(CN(C(=O)c2ccco2)c2ccc(C)cc2)ccc1O	0.4
CCC1CCCCN1Cc1cc(OC)c(O)c([N+](=O)[O-])c1 (stereo unspecified)	0.5
O=c1oc2c(CN3CCOCC3)c(O)ccc2c2c1CCCC2	0.5
Cc1cc(Cl)c(OCCCNCc2ccccc2)c(Br)c1	i
Cc1ccccc1NC1=NS(=O)(=O)c2ccccc21	i
CCCCCn1c(SCC#N)nc2cc(C(=O)NCC3CCCO3)ccc2c1=O (stereo unspecified)	i
O=c1c(C(c2c(O)nc3n(c2=O)CCS3)c2cccc3ccccc23)c(O)nc2n1CCS2	0.1
COc1cccc(C2=NOC(C(=O)NCCN3CCOCC3)C2)c1 (stereo unspecified)	0.1
O=C(OCC(=O)c1ccco1)c1ccc2ncsc2c1	0.3

# Two consecutive records from above, quoted:
canonical_smiles	H5N1 antiviral
CN1CCN(C(=O)c2cc3sccc3n2CC(=O)c2ccccc2)CC1	i
Nc1nc(SCC(=O)N2N=C3/C(=C/c4ccco4)CCCC3C2c2ccco2)n[nH]1 (stereo unspecified)	2.1

# Remaining list, next part.
mol | H5N1 antiviral
Cc1cccc(-c2nnc(NC(=O)c3ccc(Cl)cc3)o2)c1 | 0.0
CCOC(=O)C1CCN(C(=O)c2ccc(N(C)S(C)(=O)=O)cc2)CC1 | 0.6
O=C(NC1CC1)c1cc2c(s1)-c1ccccc1OC2 | i
O=C(NCc1ccc2c(c1)OCO2)c1cc2ccccc2o1 | i
Cc1c(NC(=O)Cn2nc(C(F)(F)F)c3c2CCCC3)c(=O)n(-c2ccccc2)n1C | 1.1
O=C(Nc1nccs1)C1C2CC3OC(=O)C1C3C2 (stereo unspecified) | 0.4
CC(=O)N1CCc2cc(S(=O)(=O)NC3CCCc4ccccc43)ccc21 (stereo unspecified) | 2.3
CC1CN(C(=O)CSc2nnc(-c3ccncc3)n2-c2ccccc2)CC(C)O1 (stereo unspecified) | 1.7
O=C(Nc1ccc(CN2CCOCC2)cc1)c1cccc(F)c1 | 0.0
COc1ccc(S(=O)(=O)N(C)CC(=O)NC2CCCCC2)cc1Cl | 0.1
Cc1ccc(-c2cc(-c3cccs3)[nH]n2)c(O)c1 | i
COc1cc2c(cc1OC)C(C(=O)NCCN1CCOCC1)C1c3ccccc3CCN1C2=O (stereo unspecified) | i
O=C(Nc1ccccc1C(=O)N/N=C/c1ccco1)c1ccccc1Cl | 0.1
O=C(c1ccccc1)N1CCN(C(=O)c2ccccc2Br)CC1 | 3.1
Cc1ccc(S(=O)(=O)c2cc(C#N)c(=O)[nH]c2N)cc1 | i
Cc1ccc(S(=O)(=O)N=Nc2c(O)[nH]c3ccccc23)cc1 | i
O=C(Nc1ccc(Cl)cn1)c1ccccc1F | i
O=C(COC(=O)Cc1ccc(S(=O)(=O)N2CCOCC2)s1)NCCc1ccccc1 | i
O=C(Nc1ccc(O)cc1)c1ccc(C(=O)c2ccccc2)o1 | 0.9
CC1(C)Cc2c(sc3c2c(=N)n(Cc2ccco2)c(=O)n3Cc2ccc(Cl)cc2)CO1 | 0.8
Cc1ccc(S(=O)(=O)CC(=O)N2CCCC2)cc1 | i
CCN(CC)S(=O)(=O)c1cccc(-c2nnc(SCC(N)=O)n2CCc2ccccc2)c1 | 1.1
O=C(/C=C/c1ccccc1)NNC(=O)c1cccc(Cl)c1 | i
COC(=O)CN(C(=S)Nc1ccc(Cl)cc1)C1CC(=O)N(c2ccc(OC)cc2)C1=O (stereo unspecified) | i
COc1ccc(NS(=O)(=O)c2cc(OC)ccc2NC(=O)c2cc(C)oc2C)cc1 | i
Cc1cccc(NC(=O)N2CCCC2C(=O)NCc2cccs2)c1 (stereo unspecified) | i
CC(=O)NN1C(=O)/C(=C\c2ccc(C)cc2)SC1=S | i
CCOC(=O)/C(C#N)=C1/SC(CCO)C(=O)N1c1ccccc1 (stereo unspecified) | 1.0
COc1cc(NC(=O)C2CCCCN2)ccc1OCC(C)C (stereo unspecified) | i
Cc1ccc(-c2nnn(CC(=O)N3CCN(c4ccccc4)CC3)n2)o1 | 0.3
O=C(CSc1nnnn1-c1ccccc1)NC(=O)Nc1ccc2c(c1)OCCO2 | i
Cc1ccc(Oc2ccccc2/C=C2\SC(=O)N(C)C2=O)cc1 | i
CCn1cc(Br)c(C(=O)Nc2cccc(Cl)c2)n1 | 0.8
COc1ccc2[nH]c(O)c(NC(C)=O)c2c1 | i
CCOC(=O)N1CCN(C(=O)Cn2c(=O)sc3ccccc32)CC1 | i
CCC1(CC)C(=O)NC(=O)NC1=NCCc1ccc(O)cc1 | 0.4
Clc1cccc(Oc2cnc3ccccc3n2)c1 | i
COc1cccc(CN2C(=O)CCC2(C)C(=O)NC2CCCCCC2)c1 (stereo unspecified) | i
CC(C)(C)NS(=O)(=O)c1ccc(NS(=O)(=O)c2ccc(F)cc2)cc1 | 0.7
O=C(NCCN1CCOCC1)c1cc2cc(Br)ccc2oc1=O | 0.1
COc1nnc(-c2ccc(C)c(S(=O)(=O)NCCO)c2)c2ccccc12 | 1.0
COc1ccc(/C=C2\N=C(SC)NC2=O)cc1 | 0.4
Cc1cc([N+](=O)[O-])ccc1NCc1ccccc1 | i
Cc1ccc(S(=O)(=O)Oc2ccc(/C=C(/NC(=O)c3ccccc3)C(=O)Nc3ccccc3)cc2)cc1 | i
Cc1cccc(CN2C(=O)N/C(=C/c3cc(C)n(-c4cc(C)ccn4)c3C)C2=O)c1 | i
O=C(Nc1ccccc1N1CCOCC1)c1ccc(Br)o1 | 1.0
O=C(CSc1nnc(CNc2ccc(Cl)cc2)o1)Nc1nc2ccccc2s1 | 0.2
CCCCC(C(=O)O)C(C)CC(=O)Nc1cccc(C(=O)O)c1 (stereo unspecified) | i
COc1ccc(CCNC(=O)C2CCN(S(=O)(=O)N3CCOCC3)CC2)cc1OC | 0.0
O=C(NCc1ccc(N2CCCC2=O)cc1)c1cn(Cc2ccccc2)nn1 | i
COc1ccc2cc(/C=N/NC(=O)CSCc3ccc([N+](=O)[O-])cc3)c(Cl)nc2c1 | i
Cc1cc(C=O)c(C)n1-c1ccc(NC2CCCCC2)c([N+](=O)[O-])c1 | i
CCc1c(O)nc2sc3ccccc3n2c1=O | 0.3
O=S(=O)(NCc1ccccn1)c1ccc(Br)s1 | 0.4
O=C1c2ccccc2C(Nc2ccc(S(=O)(=O)N3CCCCC3)cc2)N1Cc1ccco1 (stereo unspecified) | i
O=c1cc(O)n(-c2ccccc2F)c(=S)[nH]1 | 0.6
COc1ccc(C(=O)O/N=C(/C)c2cccs2)cc1 | 0.4
CC(=O)N(c1ccc(Br)cc1)C1C=CS(=O)(=O)C1 (stereo unspecified) | 0.8
O=C1c2ccccc2C(=O)N1CC(O)Cn1nnc2ccccc21 (stereo unspecified) | i
CC(C)(C)n1nnnc1C(c1cccs1)N1CCN(c2ccccc2)CC1 (stereo unspecified) | i
COC(=O)c1ccccc1NC(=O)CSc1ccccc1 | 0.3

# Molecules above with a thiophene ring, fused or not (15):
mol | H5N1 antiviral
N#CC1=C(N)N(c2ccccc2)C2=C(C(=O)CCC2)C1c1cccs1 (stereo unspecified) | 2.9
COCCNc1nc(-n2nc(C)cc2C)nc2sc3c(c12)CCCC3 | 8.4
CN(C(=O)C1CCN(S(=O)(=O)c2cccs2)CC1)C1CCCCC1 | 2.2
CN1CCN(C(=O)c2cc3sccc3n2CC(=O)c2ccccc2)CC1 | i
Fc1ccc(C(c2nnnn2Cc2cccs2)N2CCN(C3CCCC3)CC2)cc1 (stereo unspecified) | 4.5
CCC(C)(C(=O)NC1CCCCC1)N(Cc1cccs1)C(=O)Cc1cccs1 (stereo unspecified) | i
O=C(Cc1cccs1)Nc1ccccn1 | 7.5
O=C(NC1CC1)c1cc2c(s1)-c1ccccc1OC2 | i
Cc1ccc(-c2cc(-c3cccs3)[nH]n2)c(O)c1 | i
O=C(COC(=O)Cc1ccc(S(=O)(=O)N2CCOCC2)s1)NCCc1ccccc1 | i
CC1(C)Cc2c(sc3c2c(=N)n(Cc2ccco2)c(=O)n3Cc2ccc(Cl)cc2)CO1 | 0.8
Cc1cccc(NC(=O)N2CCCC2C(=O)NCc2cccs2)c1 (stereo unspecified) | i
O=S(=O)(NCc1ccccn1)c1ccc(Br)s1 | 0.4
COc1ccc(C(=O)O/N=C(/C)c2cccs2)cc1 | 0.4
CC(C)(C)n1nnnc1C(c1cccs1)N1CCN(c2ccccc2)CC1 (stereo unspecified) | i
